Vaccinia Venus – inhibitors of vaccinia virus (Venus reporter); Vaccinia virus Venus reporter expression, fluorescence; Potency, µM (top dose mostly 36.5 µM), for the others: top-dose activity change, negative = inhibition, most hits filed as inhibitors; 330,000 compounds, 0.46% hits; active means well fitted inhibition curve with a large enough effect; inconclusive means small, poorly fitted or top-dose-only effect; inactive means no such curve, though single readings can be large or run the other way; tested in A549 cells; note: nearly all actives have a fitted effect of over 30% in size; inactives centre near -10
Vaccinia mCherry – inhibitors of vaccinia virus infection (mCherry reporter signal) | Vaccinia virus mCherry reporter infection, fluorescence; about a quarter of the inactives have no number | Potency, µM (highest dose often 36.5 µM), without a hit: top-dose activity change, negative = inhibition, actives largely listed as inhibitors | 310,000 compounds, 0.63% hits; active = well fitted inhibition curve with a large enough effect; inconclusive = small, poorly fitted or top-dose-only effect; inactive = no such curve, though single readings can be large or run the other way; tested in A549 cells; note: nearly all actives have a fitted effect of over 35% in size; inactives centre near -10
Active calls of the source: *; i = inactive; ? = inconclusive; . = not tested or not shown; & = joins results of further samples; [ ] = another dose, or the depositor's remark. % is set by controls: 0 for no effect and ±100 for the full control effect; potency is the fitted concentration of half-maximal effect.

mol	Vaccinia Venus	Vaccinia mCherry
Cc1cnc(CN(C)Cc2nc(Cc3cccc(C(F)(F)F)c3)no2)[nH]1	-3%	-4%
CCc1cccc(NC(=O)C2CCN(S(=O)(=O)c3ccc4c(c3)CC(C)N4C(C)=O)CC2)c1 (stereo not given)	?	-24%
CCN(CC)CCCn1c2c(c(SCC(=O)Nc3cc(C)on3)nc1=O)CCC2	-10%	-15%
COC(=O)c1ccc(NC(=O)c2ccccc2OCC(=O)Nc2ccc(Br)cc2)cc1	?	-27%
Cc1ccc(S(=O)(=O)NCC2CCC(C(=O)NCc3ccc(F)cc3)CC2)cc1 (stereo not given)	-10%	-14%
Cc1c(C=O)c(C=O)c(C)n1Cc1ccccc1	-1%	-5%
CC(=O)c1ccc(NC(=O)Cn2c(=O)n(Cc3ccco3)c(=O)c3sc4ccccc4c32)cc1	-7%	-5%
Cc1ccc(NC(=O)N(CCC(=O)O)Cc2ccccc2)cc1	-6%	i
COc1ccc(-c2cc(C(F)(F)F)nc(SCC(=O)NCC(C)C)n2)cc1OC	-7%[7.34 µM]	i[7.34 µM]
N#Cc1ccccc1NC(=O)c1cccn(Cc2ccccc2)c1=O	-14%	-24%
COc1cc2c(c(OC)c1OC)C(=O)CC2	17%	i
Cc1ccc(NC(=O)c2ccc(S(=O)(=O)NCc3ccco3)cc2)nc1	?	?
O=C(O)C1=CCCN(CCON=C(c2ccccc2)c2ccccc2)C1	-8%&-7%	i
COc1cc(OC)cc(C(=O)Nc2cc(C)nn2-c2ccccc2)c1	3%	i
CNS(=O)(=O)c1cc(-c2nnc(Nc3cc(C)ccc3C)c3ccccc23)ccc1C	-14%	-22%
COc1ccc(Cc2nc3ccccc3n2CC(=O)N/N=C/c2ccccc2)cc1OC	-14%	-8%
CN1CCCN(C(=O)C2CCC(C(=O)N3CCCN(C)CC3)CC2)CC1 (stereo not given)	-2%	i
O=C(CCSCc1ccc(Cl)cc1)NCc1cccs1	-1%	i
O=C(COc1ccccc1)N=C1SC2CS(=O)(=O)CC2N1c1ccc(F)cc1 (stereo not given)	2%[7.34 µM]	i[7.34 µM]
COc1ccc(-c2csc3ncnc(N4CCN(c5ccccc5O)CC4)c23)cc1	-25%	-27%
S=C(c1ccc(N2CCCC2)c(Br)c1)N1CCCCC1	-23%	-9%
CN(C)C(=O)Oc1ccc(-c2cn3cc(Cl)ccc3n2)cc1	-10%	-2%
Cc1cccc(-c2nn3c(=O)cc(CN4CCN(C(=O)/C=C/c5ccccc5)CC4)nc3s2)c1	-13%	-6%
COc1ccc(Cl)cc1C(=O)NNC(=O)CCNC(=O)c1ccccc1	-8%	i
CCN1C[C@@H]2[C@@H]3C(=O)N(Cc4ccccc4)C(=O)[C@@H]3[C@](CC)(C1=O)N2C(=O)c1ccc(C(C)(C)C)cc1	-13%	i
CC(C(=O)NCC1CCCO1)N1C(=O)C2C3CC(C(Br)C3Br)C2C1=O (stereo not given)	2%	i
O=C1CN(C(=O)COC(=O)CNS(=O)(=O)c2ccccc2)c2ccccc2N1	-4%	6%
Cc1cc(NS(=O)(=O)c2ccc(NC(=O)/C=C/c3c(F)cccc3Cl)cc2)no1	-13%	-25%
CCOC(=O)[C@]12CCCC=C1N(CCC1=CCCCC1)C(=O)[C@H](CC(=O)N1CCCC1)C2	-14%	-2%
Nc1nc(Nc2cccc(Cl)c2)n[nH]1	-15%	-27%
O=C(NCc1cccc(Cl)c1)c1ccc2c(Cl)c3c(nc2c1)CCCC3	-10%	-23%
COc1ccc(NC(=S)N2CCN(Cc3cccc(F)c3)CC2)c(OC)c1	0%	-9%
COc1ccc(NC(=O)c2ccco2)cc1NC(=O)COc1ccc(Cl)c(C)c1	?	?
COc1ccc(C(=O)NC2CCN(C(=S)Nc3cc(C)ccc3C)CC2)cc1	-5%	i
O=C(CN1CCN(S(=O)(=O)c2ccc(Br)cc2)CC1)N/N=C/c1cc([N+](=O)[O-])ccc1Cl	?	-19%
Cc1cccc(NC(=O)CN2C(=O)c3cccnc3Oc3ccc(Cl)cc32)c1C	-8%	-17%
CC(C)(C)c1ccc(-n2ncc3c2CCCC3NC(=O)CN2CCOC2=O)cc1 (stereo not given)	-15%	-13%
Cc1cc(COc2ccccc2O)on1	-7%	.
Cn1nc(C(=O)N2CCN(S(=O)(=O)c3ccccc3)CC2)c2ccccc2c1=O	-18%	i
CN(C)c1ncc(C(=O)NCc2ccccc2Cl)cn1	-5%	-7%
C=CCSc1nnc(NC(=O)CN2C(=O)NC3(CCCC3)C2=O)s1	-18%	-17%
CCN(CC)c1ccc(NC(=O)COC(=O)CSc2ccc(Br)cc2C)cc1	-12%	-5%
Cc1cc(NC(=O)CCSc2nc(-c3ccco3)cc(C(F)(F)F)n2)no1	-15%	i
Cc1ccc(Oc2nc(-c3cccnc3)nc3ccccc23)c([N+](=O)[O-])n1	4%	-8%
O=C(O)c1ccc(N2C(=O)CC(SC(=Nc3ccccc3)Nc3ccccc3)C2=O)cc1 (stereo not given)	-5%	-2%
Cc1[nH]c2ccc(-c3n[nH]c(=S)n3-c3ccccc3)cc2c1C	-18%	-7%
COc1ccc(C(C#N)N2N=C(C)CC2c2ccccc2)cc1 (stereo not given)	-14%	-2%
COc1ccc(NC(=O)c2cc(OC)c(OC)c(OC)c2)cn1	-15%	i
C#Cc1ccc([C@@H]2C=C(C(=O)NCc3ccccc3)O[C@H](OCc3ccc(CO)cc3)C2)cc1	-18%	?
Cc1ccc(S(=O)(=O)N(C)C)cc1NC(=O)COC(=O)c1ccc2c(c1)NC(=O)CS2	-2%	i

New compounds follow:
mol	Vaccinia Venus	Vaccinia mCherry
CC(C)Oc1ccc(/C(O)=C2/C(=O)C(=O)N(CCN3CCNCC3)C2c2cccc([N+](=O)[O-])c2)cc1 (stereo not given)	-10%	-3%
CCOc1ccccc1C(=O)N[C@H](C(=O)OCc1csc(CC(=O)Nc2ccc(C)cc2)n1)C(C)C	-15%	-11%
CC1=C(C(=O)N(C)C)CC(CC(=O)NCCN2CCOCC2)C(=O)N1Cc1ccc(F)cc1 (stereo not given)	-6%	-11%
CC(C)(CNC(=O)c1ccc(S(=O)(=O)N2CCCC2)cc1)N1CCOCC1	-14%	i
COc1ccc(C2C3=C(Nc4ncnn42)c2ccccc2CCC3)cc1 (stereo not given)	-13%	-11%
O=C(Nc1ccccn1)c1ccc2c(c1)OCO2	-2%	-11%
Cc1cc(NCc2ccccn2)nc2ccccc12	-10%	-1%
C=CCOC(=O)C(C#N)c1nc2ccccc2nc1N1CCN(c2ccccc2OCC)CC1 (stereo not given)	-9%	-11%
CCN(C(=O)COC(=O)c1cc([N+](=O)[O-])ccc1N1CCOCC1)C1CCS(=O)(=O)C1 (stereo not given)	-7%	-5%
COC(=O)c1oc2c(c1C)C(=O)CCC2	-13%	-14%
CC1CCCN(C(=S)NCCc2ccccc2)C1 (stereo not given)	-12%	-16%
Cc1ccc(-n2ncc3c(NNC(=O)c4cccs4)ncnc32)cc1	-13%	-23%
Cc1ccccc1-n1c(=O)c2c(n3cnnc13)-c1ccccc1CC21CCCCC1	-10%	.
CC(C)NC(=O)N(Cc1ccccc1)Cc1cccs1	-7%	-11%
CCCCCn1c(=O)[nH]c2cc(C(=O)NCCN3C(C)CCCC3C)ccc2c1=O (stereo not given)	-12%	i
CCN1CCCC1CN(Cc1cc2cc(OC)ccc2[nH]c1=O)C(=O)NCc1ccccc1 (stereo not given)	-10%	.
O=C(Nc1cccc(Cl)c1)Nc1csc([N+](=O)[O-])c1	-27%	-27%
O=C(COCc1cc(-c2cccs2)on1)N1CCN(c2ccc(F)cc2)CC1	-12%	-19%
Cc1ccc(S(=O)(=O)Nc2ccc3c(c2)nc(C)n3C)cc1	-9%	-5%
O=C(NN1C(=O)NC2(CCCCC2)C1=O)c1ccc(-c2ccccc2Cl)o1	?	?
O=C(/C=C/c1cccc(O)c1)c1cccnc1	-7%	-1%
CC(=O)C(=Cc1ccc(Cl)cc1)C(=O)c1ccccc1	4%	i
COc1cc(C(=O)NCCc2sc(-c3ccc(C)cc3)nc2C)cc(OC)c1OC	-8%	-11%
O=C(Nc1ccc(F)c(Cl)c1)N1CCN2CCCCC2C1 (stereo not given)	-11%	-11%
C[C@@H]1CN([C@H](C)CO)C(=O)CCCn2cc(nn2)CO[C@H]1CN(C)C(=O)c1ccccc1	-5%	31%
CCN(CC)S(=O)(=O)c1ccc(N2CCOCC2)c(NC(=O)c2cc([N+](=O)[O-])ccc2Cl)c1	-4%	4%
CS(=O)(=O)c1nc(-c2ccccc2)cc(C(F)(F)F)n1	?	14µM*
COc1ccc(S(=O)(=O)Nc2cccc(-c3ccc(N4CCC(C)CC4)nn3)c2)cc1OC	-23%	-29%
CC1=NN(C(=O)Cc2ccc([N+](=O)[O-])cc2)C(O)(c2cccnc2)C1 (stereo not given)	-10%	-15%
N#Cc1ccccc1S(=O)(=O)N1CCN(CC(=O)NC(=O)NC2CCCCC2)CC1	-29%	-9%

Grouped by structure, those above with a thiophene ring, fused or not.
mol	Vaccinia Venus	Vaccinia mCherry
CC(=O)c1ccc(NC(=O)Cn2c(=O)n(Cc3ccco3)c(=O)c3sc4ccccc4c32)cc1	-7%	-5%
O=C(CCSCc1ccc(Cl)cc1)NCc1cccs1	-1%	i
COc1ccc(-c2csc3ncnc(N4CCN(c5ccccc5O)CC4)c23)cc1	-25%	-27%
Cc1ccc(-n2ncc3c(NNC(=O)c4cccs4)ncnc32)cc1	-13%	-23%
CC(C)NC(=O)N(Cc1ccccc1)Cc1cccs1	-7%	-11%
O=C(Nc1cccc(Cl)c1)Nc1csc([N+](=O)[O-])c1	-27%	-27%
O=C(COCc1cc(-c2cccs2)on1)N1CCN(c2ccc(F)cc2)CC1	-12%	-19%

(listing goes on)
mol	Vaccinia Venus	Vaccinia mCherry
Cc1ccnc(NC(=O)c2cc3ccccc3o2)c1	-4%	i
CC(C)C[C@H](NC(=O)Nc1cccc(Br)c1)C(=O)O	-10%	-11%
C=CC[C@@H](CC(=O)N[C@@H](CO)Cc1ccccc1)C(=O)NC[C@H](OC(=O)[C@@H](CC=C)Cc1ccc(F)cc1)c1ccccc1	?	-21%
CCn1c(=O)n(CC)c2cc(N3CCCCC3)c(NC(=O)Nc3cc(Cl)ccc3OC)cc21	-18%	-17%
Cc1cccc(N2CCN(C(=O)CCCn3c(=S)[nH]c4cc5c(cc4c3=O)OCO5)CC2)c1C	?	?
CCC(C(=O)NCCCN(CC)CC)n1ncn2c(cc3occc32)c1=O (stereo not given)	-7%	1%
CC(C)(C)Cc1nnc(NC(=O)Cc2ccc([N+](=O)[O-])cc2)s1	-7%	-14%
CCN(CC)c1ccc(NC(=O)Nc2ccc(C(C)=O)cc2)cc1	-13%	-24%
CCNC(=O)CSc1nnc(CN2CCCCCC2=O)n1-c1ccccn1	-5%	7%
Cc1ccn(CCC(=O)O)n1	-3%	-14%
CC(C)Oc1ccc(CNC(=O)C2CCN(C(=O)N3CCOc4ccc(Cl)cc43)CC2)cc1	-26%	-28%
CC(C)CC1C(=O)N(Cc2cn(Cc3ccco3)nn2)CCS(=O)(=O)N1Cc1ccc(-c2cccc(N(C)C)c2)cc1 (stereo not given)	-26%	-14%
CC(NC(=O)C1=Cc2ccccc2OC1)c1ccccc1 (stereo not given)	-15%	-13%
COCC(=O)Nc1nnc(COc2ccccc2)s1	7%	5%
CSc1nc(Nc2ccc(C)cc2)c(C#N)c(-c2ccccc2)n1	-17%	-18%
Cc1ccc(CNC(=O)c2cc3sccc3n2Cc2ccc(F)cc2)cc1	-6%	-9%
O=c1nc(SCc2c(F)cccc2Cl)nc(-c2ccccc2)[nH]1	9%	-11%
O=C(CSc1nnc(-c2ccncc2)s1)Nc1ccc(Cl)c(C(=O)O)c1	-14%	-5%
Cc1cccc(C(=O)N[C@H](C(=O)OCC(=O)NC2CCS(=O)(=O)C2)C(C)C)c1 (stereo not given in full)	-11%	-5%
Cc1cccc(C)c1NC(=O)C1(C)CN(S(C)(=O)=O)CC(=O)N1CCOc1ccccc1 (stereo not given)	4%	0%
COc1ccc(-c2nc(CC(=O)O)cs2)cc1	0%	-15%
Cc1ccc(S(=O)(=O)CCc2nnc(NC(=O)COc3cccc(C)c3)s2)cc1	-15%	i
CCCn1c2ccccc2c2cnn(CC(=O)NCCCOC(C)C)c(=O)c21	-10%	i
COc1ccc(C2NC(=S)NC(C)=C2C(=O)c2ccccc2)cc1OC (stereo not given)	1%	i
CCN(CC)Cc1c(NC(=O)c2ccccc2)sc(C)c1C	-8%	-10%
CCCSc1ncc(Cl)c(C(=O)Nc2ccc(OC)cc2OC)n1	?	?
CCCCSc1nc2sc3c(c2c(=O)n1-c1ccccc1C)CC(C)(C)OC3	-3%	-9%
Cc1cc(C)c(OCC(=O)OCCNC(=O)c2cccnc2)c(C)c1	0%	i
